From PubChem
Bst PK mod = modulators of Bacillus stearothermophilus pyruvate kinase; partly purified Bacillus stearothermophilus pyruvate kinase, luminescence ATP production; ribose 5-phosphate activator present at AC10; Potency, µM; hit rate 1.2% among 51,000; in the data active means potency below about 11 µM; inconclusive means mostly about 12 µM to 25 µM; inactive means weaker than that;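 the screen sought inhibitors and activators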;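 note: potency is the fitted concentration of half-maximal effect; scaled between full activation by ribose 5 phosphate and full inhibition by luteolin; about four in five hits inhibit and the cells do not say which; series up to 57 µM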
TsaE inh = displaces an ADP probe from E. coli YjeE (TsaE) | P0AF67 | purified YjeE, fluorescence polarisation of a bound ADP probe | Potency, µM | hit rate 0.05% among 71,000 | AID 605; active = well fitted falling curve; inconclusive = weaker or top-dose-only fall, or a rising curve; inactive = flat or poorly fitted curve;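 note: top concentration of the series not given in the record; excess ADP was the control for the full effect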
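Purified YjeE (10 uM) with BODIPY Texas Red-labeled ADP probe (2 uM); compounds pin-transferred, 15 min at room temperature. Binding inhibition read as decreased fluorescence polarization; ADP titration as control.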
Active calls of the source: *; i = inactive; ? = inconclusive; · = not tested or not shown. Only part of the results is shown; rates above refer to the full screens.

Values run as follows: TsaE inh, Bst PK mod
[1] Cc1ccc(S(=O)(=O)C2(C(=O)Nc3ccc(F)cc3)CC2)cc1
  i, >57
[2] COC(=O)Cc1cc(=O)[nH]c(/N=C(\N)Nc2ccc(C)cc2C)n1
  i, ·
[3] Cc1c(C)c2c(C)nn(-c3ccccc3)c2[nH]c1=O
  i, ·
[4] CCOc1ccc(N2Cc3ccccc3C2)cc1
  i, ·
[5] Cc1ccc(C(c2nnnn2C(C)(C)C)N2CCN(C3CCCC3)CC2)cc1 (configuration not stated)
  i, >57
[6] C=CCn1cnc2c(NCc3ccccc3)ncnc21
  i, >57
[7] Nc1ncc2c(n1)CC(c1ccco1)CC2=O (configuration not stated)
  i, >57
[8] Cc1nc2cc(-c3ccccc3)ccc2o1
  i, ·
[9] CS(=O)(=O)N1CCC(C(=O)c2cccc(Cl)c2)CC1
  i, >57
[10] COc1cc2c(cc1OC)C1=C(C#N)CCC(=O)N1CC2
  i, >57

Next part
Values run as follows: TsaE inh, Bst PK mod
[11] CCOC(=O)c1cccc(NC(=O)CCNS(=O)(=O)c2ccc3c(c2)CCN3C(=O)CC)c1
  i, >57
[12] CCn1c(=O)c2cc(S(=O)(=O)NCc3ccccc3)ccc2n(CC)c1=O
  i, >57
[13] COc1ccc2[nH]cc(CCNC(=O)C3CCCNC3=O)c2c1 (configuration not stated)
  i, ·
[14] O=S(=O)(NCc1ccc(F)cc1)c1ccc2c(c1)OCCO2
  i, >57
[15] CCn1c(SCC(=O)N2CCN(c3ccccc3)CC2)nc2c(c1=O)SC(C)C2 (configuration not stated)
  i, ·
[16] CSC1=Nc2sc3c(c2C2=NCCN12)CCCC3
  i, i
[17] CC(=O)NC(Cc1ccc(C(C)C)cc1)C(=O)NC1CCN(c2nc(C)cc(C)n2)CC1 (configuration not stated)
  i, >57
[18] O=C1c2ccccc2C(=O)N1Cc1nc2ccccc2c(=O)n1CCCn1ccnc1
  i, ·
[19] COc1ccc(/C=N/n2cncn2)cc1COc1ccc(NC(C)=O)cc1
  ·, >25.6
[20] Cc1cc(C(=O)CSc2nc3ccccc3o2)c(C)n1C1CC1
  i, >57

The results go on:
Values run as follows: TsaE inh, Bst PK mod
[21] COc1ccc(C/C(O)=C(\C#N)c2nc3ccccc3[nH]2)cc1OC
  i, ·
[22] Cn1c(CN2CCOCC2)nc2cc(NC(=O)c3ccccc3Cl)ccc21
  i, >57
[23] O=S(=O)(c1ccccc1)N1CCC[C@@]2(CCN(Cc3nccs3)C2)C1
  i, ·
[24] CNC(=O)NC(=O)CSc1ncc(C(F)(F)F)cc1Cl
  i, >57
[25] CCCCC(c1nnnn1CC1CCCO1)N1CCN(c2cc(Cl)ccc2C)CC1 (configuration not stated)
  i, >57
[26] CCn1nnnc1SCC(=O)NCc1ccco1
  i, >57
[27] CCOc1cc2[nH]c(=S)n(Cc3ccc(C)o3)c(=O)c2cc1OCC
  i, >57
[28] CCCCC(CC)CO (configuration not stated)
  i, ·
[29] Cc1nnc(N2C(=O)C(O)=C(C(=O)c3ccco3)C2c2ccc(F)cc2)s1 (configuration not stated)
  i, ·
[30] CCCOc1ccc(CSc2ncn[nH]2)cc1
  i, >57

Further entries.
Values run as follows: TsaE inh, Bst PK mod
[31] O=C(c1ccc2c(c1)OCO2)N1CCCN(C(=O)c2ccc3c(c2)OCO3)CC1
  i, ·
[32] O=C(NCc1cccs1)C1CCCN1S(=O)(=O)c1ccccc1F (configuration not stated)
  i, >57
[33] O=C(O)C1NCCc2ccccc21 (configuration not stated)
  i, >57
[34] CCCN1CCN(c2nc3c([nH]2)c(=N)ncn3CC(O)CO)CC1 (configuration not stated)
  i, >57
[35] C=Cn1c(N2CCOCC2)nc2c1c(=O)[nH]c(=O)n2C
  i, >57
[36] CCOC(=O)c1c(CN2CCCCC2)n(C)c2ccc(OC)c(S(=O)(=O)c3ccccc3)c12
  i, >57
[37] Cn1cccc1C(=O)N1CCC2(CCCN(c3ncccn3)C2)CC1
  i, ·
[38] CN(C(=O)C1CCOC1)c1nnc(-c2ccccn2)s1 (configuration not stated)
  i, >57
[39] COc1ccc(C2CC(=O)c3sc(N)nc3C2)cc1 (configuration not stated)
  ·, >25.6
[40] COCCNC(=O)C(c1ccc(F)cc1)N(CC1CCCO1)C(=O)CCC(=O)Nc1ccccn1 (configuration not stated)
  i, >57

The list continues:
Values run as follows: TsaE inh, Bst PK mod
[41] O=C(Nc1cnn(C23CC4CC(CC(C4)C2)C3)c1)c1cc(-c2ccccc2)on1
  i, >57
[42] Clc1ccc(-c2nnc3sc(Cc4cccs4)nn23)cc1
  ·, i
[43] CCCCCC(=O)Nc1ccc2oc(-c3cncc(Br)c3)nc2c1
  i, >57
[44] C=CCn1c(COc2ccccc2)nnc1SCC(=O)C(C)(C)C
  i, >57
[45] O=C(OC(C(=O)NCc1cccs1)c1ccc(F)cc1)c1ccco1 (configuration not stated)
  i, >57
[46] CC(C)Oc1cccc(C(=O)Nc2ccc(N3CCN(S(C)(=O)=O)CC3)cc2)c1
  i, >57
[47] Cn1c(=O)c2c(nc(CN3CCCCC3)n2CCCc2ccccc2)n(C)c1=O
  i, >57
[48] N#Cc1cc2sc3nc4ccccc4n3c2cc1C#N
  i, >57
[49] Nc1nonc1NC(=O)CSc1ncccc1C(=O)O
  i, >57
[50] CN(Cc1ccccc1)C(=O)CSc1nnc(-c2ccco2)n1-c1ccccc1
  i, >57

(cont.)
Values run as follows: TsaE inh, Bst PK mod
[51] O=C(CSc1nnc(COc2ccccc2Cl)o1)NC(=O)NC1CCCC1
  i, >57
[52] COc1ccccc1OCc1nnc(SCCN2CCOCC2)o1
  i, >57
[53] COc1ccccc1C(=O)Nc1ccc2oc(-c3ccc(F)cc3)nc2c1
  i, ·
[54] COc1ccccc1C(=O)Nc1cccc(-c2cn3ccsc3n2)c1
  i, ?
[55] COC(=O)c1sccc1NC(=O)c1c(C)noc1C
  i, >57
[56] COCCn1nnnc1C(c1cccs1)N1CCN(c2cc(C)ccc2C)CC1 (configuration not stated)
  i, >57
[57] CC(C)CN(CC(C)C)S(=O)(=O)N1CCC(C(=O)NC2CCCCCCC2)CC1
  i, >57
[58] O=S(=O)(c1ccc(Oc2ccc(-c3nnco3)cc2)nc1)N1CCC(Cc2ccccc2)CC1
  i, >57
[59] CCOC(=O)N1CCN(C(=O)CS(=O)Cc2nc(-c3ccc(C)cc3)oc2C)CC1 (configuration not stated)
  i, ·
[60] O=C(NCC12CC3CC(CC(C3)C1)C2)c1nc2ncccn2n1
  i, >57

Next entries.
Values run as follows: TsaE inh, Bst PK mod
[61] O=S(=O)(Nc1cccc(-c2cn3ccsc3n2)c1)c1ccc(F)cc1
  i, >57
[62] Cc1cc(N2CCOCC2)nc2ccc(NC(=O)C3CCC(C)CC3)cc12 (configuration not stated)
  i, >57
[63] Cc1ccc2cc(CCNC(=O)c3ccco3)c(=O)[nH]c2c1
  i, ·
[64] Cc1nnc(SCC(=O)Nc2ccc3c(c2)OCCO3)s1
  i, >57
[65] Cc1nnc(SCC(=O)N2c3ccccc3CC2C)s1 (configuration not stated)
  i, >57
[66] O=c1cc(Nc2ccc3c(c2)OCCO3)[nH]c(=O)n1-c1ccc(Br)cc1
  i, >57
[67] Cc1ccccc1-c1cc(-n2ccnc2)ncn1
  i, ·
[68] CN(C)CCCN1C(=O)c2oc3ccc(Cl)cc3c(=O)c2C1c1cccnc1 (configuration not stated)
  i, ·
[69] CCc1ccc(S(=O)(=O)NCCc2csc(-c3ccccc3)n2)s1
  i, >57
[70] CCOC(=O)c1cc2c(c(CSc3nc4ccccc4c(=O)n3Cc3ccco3)c1)OCOC2
  i, >57

The listing continues.
Values run as follows: TsaE inh, Bst PK mod
[71] CC(C)NC(=O)NC1C2CC3CC(C2)CC1C3 (configuration not stated)
  i, >57
[72] CN(C)/C=N/c1c(C#N)cnn1-c1ccc(C(F)(F)F)cn1
  i, >57
[73] CCOc1ccccc1NC1c2ccccc2C(=O)N1Cc1ccco1 (configuration not stated)
  i, ·
[74] CCCCn1ccnc1C(=O)c1cccc(S(=O)(=O)N2c3ccccc3CC2C)c1 (configuration not stated)
  i, >57
[75] CCOC(=O)c1[nH]c2ccc(OCC)cc2c1NC(=O)CN1CCN(c2ccccc2)CC1
  i, >57
[76] Cc1noc(/C=C/N(C)C)c1S(=O)(=O)N1CCCC(C(=O)NC2CCCCC2C)C1 (configuration not stated)
  i, ·
[77] Cc1sc2ncnc(OCC(=O)NCC3CCCO3)c2c1C (configuration not stated)
  i, >57
[78] CCOC(=O)N1CCN(c2c(NC3CCN(Cc4ccccc4)CC3)c(=O)c2=O)CC1
  i, ·
[79] Cc1oc(/N=C/c2ccc(Cl)cc2Cl)c(C#N)c1C
  i, ·
[80] O=C(c1csnn1)N1CCC2(CCCN(c3ccncc3)C2)CC1
  i, ·

(cont.)
Values run as follows: TsaE inh, Bst PK mod
[81] O=c1c(CCc2ccccc2)nc2cncnc2n1Cc1ccc(F)cc1
  i, ·
[82] COc1ccc(OC)c(-n2c(N)c(C(=O)NCC3CCCO3)c3nc4ccccc4nc32)c1 (configuration not stated)
  i, >57
[83] O=C(Cn1cnc2ccccc2c1=O)c1c[nH]c2ccccc12
  i, >57
[84] C1CCC(n2nnnc2CN2CCCC2)CC1
  i, >57
[85] Cc1cc(CCN2CCC(=O)NC2=O)ccc1OC(C)C
  i, >57
[86] COc1cc(NC(=O)C2CCCN2S(=O)(=O)c2cccc3cccnc23)cc(OC)c1OC (configuration not stated)
  i, ·
[87] COc1cc(OC)cc(C(=O)Nc2ccc(-c3nc4ccccc4o3)c(O)c2)c1
  i, >57
[88] O=C(c1ccncc1)N1CCC2(CCCN(c3cccc(-c4ccccc4)c3)C2)CC1
  i, ·
[89] COc1cccc(NC2=CC(=O)CC(C)(C)C2)c1
  i, >57
[90] CCCOC(=O)C1[C@H]2C(=O)N(Cc3ccco3)C[C@]23C=C[C@H]1O3 (some centres not stated)
  ·, >25.6

Next section
Values run as follows: TsaE inh, Bst PK mod
[91] COC(=O)C1C2C=CC3(CN(C(C)C)C(=O)C13)O2 (configuration not stated)
  i, ·
[92] COc1ccc(NC(=O)CCS(=O)(=O)c2ccc3c(c2)CCCN3C(C)=O)cc1
  i, >57
[93] Cc1ccc2[nH]c3nc(SCCN4CCOCC4)nnc3c2c1
  i, ·
[94] CN1CCN(CCC(=O)Nc2ccccc2Cl)CC1
  i, >57
[95] Cn1c(CCCOc2ccc(Cl)cc2Cl)nnc1SCC(=O)Nc1nccs1
  i, >57
[96] Cc1ccc(SCCCCN2C(=O)NC(C)(C)C2=O)cc1
  i, >57
[97] CC(=O)N1CC=CC1(CC(C)C)C(=O)NCCc1c[nH]c2ccccc12 (configuration not stated)
  i, ·
[98] O=C(C1CCN(c2ncnc3c2sc2cccc(F)c23)CC1)N1CCOCC1
  i, ·
[99] CCC(C)(C(=O)NC1CCCC1)N(C(=O)CNC(C)=O)c1ccccc1 (configuration not stated)
  i, >57
[100] CCCOc1ccc(C2/C(=C(/O)c3ccccc3)C(=O)C(=O)N2CCCN(C)C)cc1OC (configuration not stated)
  ·, >25.6

(further entries)
Values run as follows: TsaE inh, Bst PK mod
[101] CCn1cc(C(=O)O)c(=O)c2cc(S(=O)(=O)N(C)C)ccc21
  i, >57
[102] CCS(=O)(=O)N1CCC(C(=O)NCCC2=CCCCC2)CC1
  i, >57
[103] COc1ccc2nc(C)c3cc(C)oc3c2c1
  i, ·
[104] c1ccc(OCCSc2nnnn2-c2ccccc2)cc1
  i, ·
[105] O=C(c1cccc(C(F)(F)F)c1)N1CCCCCC1
  i, >57
[106] OCc1cn(-c2ccccc2)nc1-c1ccc(-c2nn(-c3ccccc3)cc2CO)cc1
  i, ·
[107] O=C1N(CN2CCN(c3cccc(Cl)c3)CC2)c2ccccc2C12OCCCO2
  i, >57
[108] Cc1ccc2nc(NCCCN3CCOCC3)c(C=NCCCN3CCOCC3)c(=O)n2c1
  i, >57
[109] CCSc1ccc2nnc(-c3cccc(F)c3)n2n1
  i, ·
[110] O=C(Nc1ccc(Cl)c(Cl)c1)Nc1cc(C(=O)N2CCOCC2)ccc1N1CCCCC1
  i, >57

Next section
Values run as follows: TsaE inh, Bst PK mod
[111] Cc1ccc(C(=O)CSc2nc3cccnc3n2C)cc1
  i, >57
[112] O=C(NCCc1c[nH]c2ccccc12)C(F)(F)C(F)F
  i, >57
[113] O=c1cc(N2CCOCC2)[nH]c(=O)n1C1CCCCC1
  i, >57
[114] CC(C)Cn1cnc2c(N)nc3ccccc3c21
  i, >57
[115] O=C(CC1CCCC1)Nc1nc2ccccc2[nH]1
  i, >57
[116] CC(C)n1nc(C(=O)OCC(=O)N(C)C2CCS(=O)(=O)C2)c2ccccc2c1=O (configuration not stated)
  i, >57
[117] CCn1nnnc1SCC(=O)Nc1nc(-c2cccs2)cs1
  i, >57
[118] Cn1nnc(-c2ccc(OCc3ccccc3F)cc2)n1
  i, >57
[119] Cc1cc(NC(=O)NC2(C(F)(F)F)Oc3ccc(Cl)cc3O2)no1 (configuration not stated)
  i, >57
[120] N#Cc1cccc(Cn2nnc(-c3ccccc3)n2)c1
  i, >57

Next section.
Values run as follows: TsaE inh, Bst PK mod
[121] Cc1onc(-c2c(Cl)cccc2Cl)c1C(=O)Nn1cnnc1
  i, >57
[122] COc1ccc(CN2CCN(C(=O)c3ccco3)CC2)cc1
  i, >57
[123] CN=C(C)C1=C(O)C(C(=O)OC)C(C)(C)CC1=O (configuration not stated)
  i, ·
[124] CCCC(=NCC(=O)O)C1=C(O)C(C(=O)OC)C(C)(C)CC1=O (configuration not stated)
  i, ·
[125] CCOC(=O)N1CCN(C(=O)CN2C(=O)COc3ccc(C)cc32)CC1
  i, >57
[126] COCc1ccc2oc(C(=O)O)cc2c1
  i, ·
[127] COC(=O)c1ccc(OC(=O)c2ccccn2)cc1
  i, >57
